ugtP null kill: growth inhibition of ugtP-null S. aureus, primary screen, RN4220 ugtP deletion, OD600; 16 h; some inactives read as strong as hits; growth inhibition, % (test concentration not listed); actives 0.54% (n = 330,000);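 active = z-score under -3 and OD600 up to 0.15 on both plates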;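 note: plate controls were untreated wells for no effect and antibiotic for full effect; wells of about 80 µL received 100 nL stock; the first replicate is given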
RN4220 kill: growth inhibition of S. aureus RN4220, primary screen, OD600; 16 h; inhibition, % (no concentration beside the values); actives 0.33% (n = 330,000); AID 1259311, 2017;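 active = z-score of -3 or lower and OD600 up to 0.18 on both plates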;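 note: plate controls were untreated cells for no effect and reference antibiotic for full effect; stock transfer was 100 nL into about 80 µL; one replicate is shown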
PrP UTR inh: inhibition of PrP 5' UTR reporter expression; actives 0.35% (n = 340,000); cell-based PrP 5' UTR mRNA reporter, plate reader; AID 488862, 2010; inhibition, % (concentration not given with the values);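 active = every replicate at 50% or more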;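 note: 0 = median of the neutral control wells; tested in H4 reporter cells; numbers are from one replicate; inactives centre near -14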
Mtb hypoxia inh: PubChem AID 1159583 | M. tuberculosis hypoxia-regulated fluorescent reporter, fluorescence | fluorescence inhibition, % (no concentration beside the values) | actives 0.1% (n = 300,000);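 active = 35 to 45% if threefold the growth effect, above 45% if 1.5-fold the growth effect; inactive = the rest, general growth blockers included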;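 note: wells of about 50 µL received 100 nL stock; 0% = vehicle wells and 100% = reference inhibitor wells; whole bacteria with a GFP reporter of the hypoxia response; strong numbers were not always called active; many hits fall short of the cut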
Bead autofluor: flagged as autofluorescent in microsphere protease counterscreen | compound autofluorescence counterscreen, microsphere flow cytometry; stronger effect = higher value | fluorescence intensity (test concentration not listed) | actives 3.1% (n = 360,000);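 active = at least 3 SD above the mean of all compounds, about 16000 in these data; inconclusive = too few beads counted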;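 note: 100 nL of 1 mM stock went into each well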
BJeLR viability: MLPCN primary cell-based screen for lethality selective to Ras in HRASV12 cells; BJeLR (HRASV12) viability, CellTiter-Glo ATP luminescence, 48 h; reference of the scale not given here; inhibition, % (no concentration beside the values); actives 0.17% (n = 300,000); AID 1554, 2009;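 active = replicate mean above 50%; inconclusive = above 50% but judged a plate artefact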;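 note: 50 nL library stock added to about 25 µL; numbers are from one replicate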
Mtb hypoxia inh growth: also measured in Mtb hypoxia inh; calls as there; growth inhibition, %; measured here: M. tuberculosis growth (absorbance);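 0% = vehicle and 100% = reference antibiotic; read after six days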
Numbers without * were called inactive; ? = inconclusive; . = not tested or not shown.

nr | SMILES | ugtP null kill | RN4220 kill | PrP UTR inh | Mtb hypoxia inh | Mtb hypoxia inh growth | Bead autofluor | BJeLR viability
1 | Cc1ccc(S(=O)(=O)N=C(CCl)N2CCOCC2)cc1 | 3 | 2.0 | . | . | . | . | .
2 | CC1CCC2(CC1)SCC(=O)N2c1ccccc1 (stereo unspecified) | -2 | 0.7 | 0 | 17 | 6 | 4753 | -7
3 | COc1ccccc1N1CCN(C2CCCN(Cc3ccccc3OCCO)C2)CC1 (stereo unspecified) | 1 | 5.1 | -22 | -1 | 0 | 6497 | -7
4 | O=C(c1ccccc1)N1CCN(c2ccc(NCc3ccc4c(c3)OCO4)cc2)CC1 | 2 | 17 | -7 | -12 | 13 | 6230 | -4
5 | C[C@H]1CCC[C@]2(O[C@@H](CCO)C[C@@H](O)[C@@H]2O)O1 | . | . | -13 | . | . | 3091 | 7
6 | COc1ccc(N2CCN(C(=S)Nc3ccc(C)cc3C)CC2)cc1 | 3 | 3.7 | -8 | 8 | 4 | 1947 | 7
7 | O=S(=O)(NC(=S)Nc1ccccc1)c1ccc(F)cc1 | 8 | 3.5 | -21 | 13 | 13 | 3411 | 5
8 | CC(C)NC(=O)NC(=O)CSc1nnc(COc2ccccc2F)n1C(C)C1CC2CCC1C2 (stereo unspecified) | -10 | 2.6 | 12 | 4 | 5 | 10951 | 1
9 | Cc1ccccc1C(O)c1ccncc1 (stereo unspecified) | -1 | 3.5 | 2 | 1 | 3 | 19164* | 4
10 | Cc1ccc(C)c(Cn2c(=O)n(CCCC(=O)NCc3ccco3)c(=O)c3ccccc32)c1 | -6 | 11 | -8 | 7 | 4 | 2092 | -1
11 | O=C(/C=C/c1ccc2ccccc2n1)N1CCN(S(=O)(=O)c2ccc(F)cc2)CC1 | 15 | 0.2 | 1 | 3 | -2 | 5588 | 2
12 | CC(C)(C)OC(=O)NNc1c2ccccc2nc2ccccc12 | 7 | 24 | -31 | 7 | 2 | 3695 | 0
13 | CSC1=NS(=O)(=O)c2c(C)nn(C)c2S1 | . | . | -19 | . | . | 8049 | -5
14 | Cc1ccc(S(=O)(=O)N2CCN(C(=O)c3ccnn3C)CC2)cc1C | 2 | 2.5 | -19 | 1 | -6 | 4319 | 6
15 | COc1ccc(-c2cc(C)no2)cc1S(=O)(=O)N1CCCN(Cc2ccccc2Cl)C1 | 5 | 2.1 | -9 | 4 | 5 | 5439 | 0
16 | Cc1ccc2c(c1)C(c1ccccc1)CC(=O)O2 (stereo unspecified) | 2 | 5.2 | -21 | -3 | 9 | 4257 | 5
17 | O=C(CN(C(=O)c1csnn1)c1cccc2ccccc12)NCc1ccccc1 | 15 | -1.7 | -15 | 14 | 0 | 6029 | -13
18 | O=c1oc2ccccc2n1Cn1c(=O)oc2ccccc21 | 15 | 8.8 | -10 | 6 | -7 | 9831 | 5
19 | CCOC(=O)c1nnn2c1nc(SCC(C)=O)c1ccccc12 | 8 | 7.9 | . | 7 | 10 | 5684 | 11
20 | COc1ccc(OC)c(C(=O)c2ccc(C(=O)Nc3cccc4ccccc34)cc2)c1 | 4 | 3.6 | -23 | 11 | 4 | 2555 | 9
21 | COc1ccccc1-n1cnnc1SC(C)C(=O)Nc1cccc([N+](=O)[O-])c1 (stereo unspecified) | 4 | 3.0 | -23 | 5 | 1 | 2196 | -7
22 | C1=C(c2ccccc2)N2CCN=C2S1 | 4 | 2.2 | -25 | 7 | 0 | 6940 | -10
23 | O=C(NNC(=S)NC(=O)c1ccccc1[N+](=O)[O-])c1ccccc1 | -11 | 19 | -9 | . | . | 4972 | -8
24 | Cc1c2cnn(CC(=O)NCCN3CCOCC3)c(=O)c2c(C)n1Cc1ccccc1F | 4 | 11 | -12 | -4 | 8 | 4632 | .

Exported with values under each structure: 9 of the compounds above.
Each structure is followed by: ugtP null kill	RN4220 kill	PrP UTR inh	Mtb hypoxia inh	Mtb hypoxia inh growth	Bead autofluor	BJeLR viability
(13) CSC1=NS(=O)(=O)c2c(C)nn(C)c2S1
  .	.	-19	.	.	8049	-5
(14) Cc1ccc(S(=O)(=O)N2CCN(C(=O)c3ccnn3C)CC2)cc1C
  2	2.5	-19	1	-6	4319	6
(15) COc1ccc(-c2cc(C)no2)cc1S(=O)(=O)N1CCCN(Cc2ccccc2Cl)C1
  5	2.1	-9	4	5	5439	0
(16) Cc1ccc2c(c1)C(c1ccccc1)CC(=O)O2 (stereo unspecified)
  2	5.2	-21	-3	9	4257	5
(17) O=C(CN(C(=O)c1csnn1)c1cccc2ccccc12)NCc1ccccc1
  15	-1.7	-15	14	0	6029	-13
(18) O=c1oc2ccccc2n1Cn1c(=O)oc2ccccc21
  15	8.8	-10	6	-7	9831	5
(19) CCOC(=O)c1nnn2c1nc(SCC(C)=O)c1ccccc12
  8	7.9	.	7	10	5684	11
(20) COc1ccc(OC)c(C(=O)c2ccc(C(=O)Nc3cccc4ccccc34)cc2)c1
  4	3.6	-23	11	4	2555	9
(21) COc1ccccc1-n1cnnc1SC(C)C(=O)Nc1cccc([N+](=O)[O-])c1 (stereo unspecified)
  4	3.0	-23	5	1	2196	-7

Next section
nr | SMILES | ugtP null kill | RN4220 kill | PrP UTR inh | Mtb hypoxia inh | Mtb hypoxia inh growth | Bead autofluor | BJeLR viability
25 | Cc1ccccc1N=C1NC(=O)/C(=C/c2cccnc2)S1 | -16 | 11 | -18 | 15 | 13 | 3901 | -9
26 | Cn1ccnc1Sc1cc(NCCCO)c([N+](=O)[O-])c2nonc12 | . | . | -25 | . | . | 4246 | 8
27 | Cc1ccc(NC(=O)CSc2nnc(Cc3ccccc3)c(=O)[nH]2)c(C)c1 | -2 | 2.2 | -12 | -8 | 4 | 5806 | 8
28 | Cc1nnc(NC(=O)CSc2nnc(CNC(=O)c3ccccc3)n2-c2ccccc2)s1 | 9 | -8.8 | -9 | 1 | 3 | 5737 | 2
29 | O=C(NC(C(=O)N/N=C/c1ccccn1)c1n[nH]c(=O)c2ccccc12)c1ccccc1 (stereo unspecified) | . | . | 1 | . | . | 4133 | -19
30 | CCOC(=O)C1CCN(c2c(NCCN(CC)c3ccccc3)c(=O)c2=O)CC1 | 0 | 1.4 | -6 | 12 | 2 | 4600 | -19
31 | CCC(CC)C(=O)NCCc1ccc(S(N)(=O)=O)cc1 | 2 | 3.7 | -19 | 14 | 15 | 21021* | -6
32 | CCCCc1nnc(NC(=O)c2nc3nccc(C)n3n2)s1 | 4 | 9.0 | -20 | -7 | 4 | 4261 | -4
33 | c1ccc(C2CNCc3c2ccc2ccccc32)cc1 (stereo unspecified) | -9 | 6.3 | -26 | 11 | 5 | 10434 | 9
34 | COC(=O)C1=C(c2ccc(F)cc2F)C[C@@H]2CC[C@H]1N2C(=O)NCCOc1ccc(OC)cc1 | 17 | -2.2 | -3 | 5 | 11 | 3082 | .
35 | Cc1sc2nc(SC3CCOC3=O)n(Cc3ccccc3)c(=O)c2c1C (stereo unspecified) | 4 | -4.4 | -5 | 4 | 8 | 2529 | 1
36 | CC1=C(C(=O)Nc2cccnc2)C(c2ccc3c(c2)OCO3)C2=C(CCCC2=O)N1 (stereo unspecified) | 1 | -7.5 | -17 | . | . | 2833 | 4
37 | O=C(Nc1ccccc1F)c1c[nH]c(=O)[nH]c1=O | -5 | 2.0 | 5 | 15 | 3 | 4461 | -3
38 | CCOC(=O)C(=O)NCC(c1cccs1)S(=O)(=O)c1ccc(F)cc1 (stereo unspecified) | 9 | 3.2 | -10 | 2 | -2 | 5313 | 7
39 | O=C(Cc1ccc(Cl)cc1)Nc1ccccc1C(=O)N1CCCC1 | 5 | 1.3 | -2 | -9 | -15 | 4437 | 1
40 | O=C(Nc1nc(-c2ccccc2)cs1)c1ccc2c(=O)n3c(nc2c1)CCCCC3 | 5 | 1.2 | -8 | -9 | 6 | 2179 | 15
41 | CCC(Sc1ccc(C(=O)O)cc1)C(=O)O (stereo unspecified) | 10 | 5.6 | -10 | . | . | 2528 | 0
42 | O=C(NN=Cc1coc2ccc(Cl)cc2c1=O)c1cc(O)cc(O)c1 | 4 | 0.1 | . | -1 | -2 | . | .
43 | CC(C)(C)C(=O)c1cnc(Nc2ccccc2)s1 | 12 | -4.6 | -108 | 4 | -10 | 2434 | 0
44 | O=C(Cc1csc(-c2ccc(F)cc2)n1)Nc1cccc(S(=O)(=O)NC2=NCCC2)c1 | -1 | 2.8 | -4 | 15 | 3 | 3856 | .
45 | CC(CC(=O)Nc1cc(C)ccn1)=NNC(=O)c1ccccc1C | 8 | 19 | . | 15 | 4 | . | .
46 | CO/N=C\CC(=O)Nc1ccc(Oc2ccccc2)cc1 | . | . | -9 | . | . | 4385 | 16
47 | CN(CC(=O)Nc1ccc(N2CCOCC2)cc1)C(=O)c1cccc(Cl)c1Cl | 0 | 2.2 | -7 | -5 | 15 | 5648 | -1
48 | O=C(O)CCC(=O)N1CCN(c2nc(-c3ccccc3)c3ccccc3n2)CC1 | 0 | 4.0 | . | 2 | -4 | 3212 | -4
49 | Cc1nc2c(=O)[nH]c3ccccc3c2o1 | -2 | 3.8 | -12 | 6 | 9 | 3618 | 0
50 | COc1ccc(CCNC(=O)Cc2ccc(OCc3ccccc3)c(OC)c2[N+](=O)[O-])cc1OCc1ccccc1 | 6 | 0.5 | -12 | . | . | 2565 | 13
51 | O/N=C/c1cn(-c2ccccc2)nc1-c1cccnc1 | . | . | 3 | . | . | 4044 | -2
52 | CC(C)CCNC(=O)C1CCC(CNS(=O)(=O)c2ccc(Cl)cc2)CC1 (stereo unspecified) | 1 | 0.8 | -10 | 10 | 7 | 4566 | 9
53 | COc1cccc(OCC(=O)NNC(=O)C(=O)N2CCCC2)c1 | 5 | 9.6 | -30 | -5 | -6 | 8378 | -11
54 | C=CCNC(=O)c1ccc2c3n(nc2c1)-c1ccc(Cl)cc1CO3 | 11 | 2.8 | -89 | 7 | 14 | 3829 | 4
55 | CCOC(=O)c1nc2ccccc2c(=O)[nH]1 | 8 | 2.3 | -40 | 2 | 6 | 3825 | 1
56 | CCCCC(=O)NS(=O)(=O)c1ccc(N=NN2CCOCC2)cc1 | 9 | -0.4 | 0 | 11 | 12 | 9869 | 3
57 | CCCC(=O)Nc1cc(C)c2c(=O)oc3ccccc3c2n1 | 2 | 0.8 | -28 | 2 | 2 | 5382 | -5
58 | CCC(C)NC(=O)CC(c1ccc(OC)cc1)n1cccc1 (stereo unspecified) | -4 | -11 | -18 | 12 | 16 | 2856 | 1
59 | COc1cc(OC)cc(C(=O)NCC(=O)N2CCCCCCC2)c1 | 10 | 4.9 | -4 | 10 | 5 | 3407 | .
60 | COc1ccc(CN2CCNC(=O)C2CC(=O)NC2CCCCCCC2)cc1C (stereo unspecified) | 3 | 2.0 | 4 | 9 | 1 | 5878 | -1
61 | COC(=O)C(c1ccccc1)N(Cc1cccc(CN(C(C(=O)OC)c2ccccc2)S(C)(=O)=O)c1)S(C)(=O)=O (stereo unspecified) | 3 | 4.4 | 4 | 1 | -3 | 4712 | -5
62 | CCOc1ccc(C2NC(=O)NC(c3ccccc3)=C2C(C)=O)cc1OC (stereo unspecified) | 16 | 6.7 | -6 | -8 | -3 | 3818 | 1
63 | CC(=O)Nc1ccc(SC(C)C(=O)NC(N)=O)cc1 (stereo unspecified) | 7 | 6.0 | -27 | 6 | 9 | ? | 0
64 | CC(C)(C)C(=O)C[n+]1ccc(C(N)=O)cc1 | . | . | -4 | . | . | 8834 | 11
65 | COc1cc(C(=O)NC(C)C2CC3CCC2C3)cc(OC)c1OC (stereo unspecified) | 4 | 0.2 | -17 | 13 | 14 | 3549 | -1
66 | CC(C)CN(C(=O)CCC(=O)OCC(=O)c1ccc(F)c(F)c1)c1c(N)n(CC(C)C)c(=O)[nH]c1=O | 3 | 1.9 | -18 | 2 | -12 | 6338 | 5
67 | Cc1ccc(CSc2nnc(SCC(=O)N/N=C/c3c[nH]c4ccccc34)s2)cc1 | . | . | -29 | . | . | 3137 | -23
68 | CC1(c2nnc(-c3ccccc3)o2)CC(c2ccc(Cl)cc2)=NO1 (stereo unspecified) | 4 | 5.8 | -7 | 9 | 3 | 3508 | 4
69 | O=C(COc1ccc(Cl)cc1)Nc1ccc(Cl)cn1 | 5 | 6.3 | -61 | -1 | 7 | 2943 | -12

High-throughput results from PubChem.
